# Screens: PubChem BioAssay, Center for Chemical Genomics, University of Michigan
# CDC25B CDK2 inh: human CDC25B-CDK2/CyclinA binding inhibition; P30305+P24941; HTRF CDC25B-CDK2/CyclinA binding, anti-His/anti-Flag; active compounds read high; z-score (no concentration beside the values); actives 0.72% (n = 94,000); AID 1259370;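 further: score is relative to mean and SD of negative controls; strong numbers were not always called active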
# HIV TAR-Tat: HIV-1 TAR-Tat binding disruption. z-score (test concentration not listed). actives 0.6% (n = 100,000). HIV-1 TAR RNA, Tat peptide displacement FRET; active compounds read high;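 further: score is relative to mean and SD of negative controls; some compounds called inactive have numbers as strong as hits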
# * marks the source's active call; other numbers are inactive results; / = no result given.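 How the source made its calls: active means z-score from 3 up in half or more of its runs; inactive means the rest.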
# The first 7 records as a preview:
canonical_smiles,CDC25B CDK2 inh,HIV TAR-Tat
Cc1cccn2cc(-c3ccccc3)nc12,-0.39,1.5
COC(=O)c1ccc(-c2cc(C(=O)O)c3c(-c4ccc(C)cc4)[nH]nc3n2)cc1,/,3.3
CC(C)(C)c1ccc(OCC(O)CN2CCCCC2)cc1 (centres undefined),-0.5,1.4
CCOC(=O)CCCSc1nc(N)c2c3c(sc2n1)CCCC3,2.2,0.38
Cn1c(=O)c(=O)n(C)c2cc(N3CCCC3)c(NS(=O)(=O)c3ccc(F)cc3)cc21,/,0.03
O=S(=O)(NCCS(=O)(=O)N1CCN(c2ccccc2)CC1)c1ccc(Br)cc1,/,0.66
O=c1c2cn(Cc3ccccc3F)c3ccc(F)cc3c-2nn1Cc1ccc(F)cc1,/,-0.33

# The listing, from the first entry:
canonical_smiles,CDC25B CDK2 inh,HIV TAR-Tat
Cc1cccn2cc(-c3ccccc3)nc12,-0.39,1.5
COC(=O)c1ccc(-c2cc(C(=O)O)c3c(-c4ccc(C)cc4)[nH]nc3n2)cc1,/,3.3
CC(C)(C)c1ccc(OCC(O)CN2CCCCC2)cc1 (centres undefined),-0.5,1.4
CCOC(=O)CCCSc1nc(N)c2c3c(sc2n1)CCCC3,2.2,0.38
Cn1c(=O)c(=O)n(C)c2cc(N3CCCC3)c(NS(=O)(=O)c3ccc(F)cc3)cc21,/,0.03
O=S(=O)(NCCS(=O)(=O)N1CCN(c2ccccc2)CC1)c1ccc(Br)cc1,/,0.66
O=c1c2cn(Cc3ccccc3F)c3ccc(F)cc3c-2nn1Cc1ccc(F)cc1,/,-0.33
CC(=O)c1ccc(OCCn2c(SCC(=O)O)nc3ccccc32)cc1,-2.6,/
Cc1ccc(C2c3c(-c4cc(C)ccc4O)n[nH]c3C(=O)N2CCO)cc1 (centres undefined),-2.4,-1.1
O=C1N(Cc2cccc(F)c2)C2CS(=O)(=O)CC2N1c1ccccc1 (centres undefined),/,0.56
CCc1ccccc1NS(=O)(=O)c1ccc2nc(-c3ccccc3)[nH]c2c1,-1.2,/
Cc1ccc(CNS(=O)(=O)c2ccc(-c3n[nH]c(C)c3C)s2)cc1,/,2
CC1N=C2c3ccccc3N=C(SCC(=O)Nc3ccccc3)N2C1=O (centres undefined),/,0.11
CCCCn1nnc(NCc2ccc(Cl)cc2)n1,/,0.27
Cc1cc(C)nc(NS(=O)(=O)c2ccc(Nc3nc(-c4cccnc4)cs3)cc2)n1,-1.2,-1.5
COc1ccc(C2Nc3ccccc3-n3cc4c(=O)n(C)c(=O)n(C)c4c32)cc1 (centres undefined),1.5,-0.74
COC(=O)C1C(c2cccnc2)c2c([nH][nH]c2=O)CC1(C)O (centres undefined),-1.1,-0.63
O=C(CCCn1ccc2cc(S(=O)(=O)N3CCCC3)ccc21)NCc1ccc2c(c1)OCO2,/,1.4
C/C(=N\NC(=S)NCC(C)(C)C)c1cc(F)cc(Cl)c1O,-0.67,/
Cc1ccc(-n2nc(C)c3c(C)c(CCC(=O)NC4CCCC4)c(C)nc32)cc1,-0.32,/
O=C(NCc1ccncc1)c1cc(-c2cccs2)on1,-2.2,-1.4
Cc1nn(-c2cccc(Cl)c2)c2c1C(c1cccnc1)C(C#N)=C(N)O2 (centres undefined),1.5,1.6
O=S(=O)(c1ccc(Cl)cc1)N1CCCC(c2nc(-c3ccc4c(c3)OCO4)no2)C1 (centres undefined),/,2.1
O=C(c1nc2nc(-c3ccc(Cl)cc3)cc(C(F)(F)F)n2n1)N1CCOCC1,-0.61,0.96
CCCS(=O)(=O)c1cc2cc(Cl)ccc2oc1=O,-1.8,/
CC(=O)Nc1nnc(CCS(=O)(=O)c2ccc(Cl)cc2)s1,-0.43,-0.09
COc1ccccc1CC(=O)N1CCN(c2cccc3[nH]ccc23)CC1,-0.79,/
C(=C\CSC1=NCCN1)/CSC1=NCCN1,1.5,1.3
COc1ccccc1NC(=O)CSc1nc(C2CC2)nc2c1c(=O)n(C)c(=O)n2C,/,-0.31
O=C(CSc1ncnc2ccccc12)Nc1ccccc1F,-1.8,/
N#CC1=C2N=C(N)c3ccccc3N2C2=C(C(=O)CCC2)C1c1c(F)cccc1Cl (centres undefined),9.3*,-6.6
CC1=C(C(=O)OC(C)C)C(c2ccncc2)c2c(nc(SCC(C)C)[nH]c2=O)N1 (centres undefined),-0.98,0.85
C=CCNc1sc(S(C)(=O)=O)nc1S(=O)(=O)c1ccc(C)cc1,-0.88,-0.38
CSc1ccc(CCNS(=O)(=O)c2ccc3c(c2)NC(=O)CC(C)S3)cc1 (centres undefined),/,1.1
CC1CSc2ccc(S(=O)(=O)Nc3ccc(Cl)cn3)cc2NC1=O (centres undefined),/,0.53
COC(=O)C(CCSC)NC(=O)c1cc2c(n(-c3ccc(Cl)cc3)c1=O)CCCC2=O (centres undefined),-0.53,/
Nc1nnc(-c2nc3ccccc3[nH]c2=O)o1,/,2.5
O=S(=O)(c1ccc(Br)cc1)N1CCN(c2ccc3nnc(-c4ccccc4)n3n2)CC1,-0.17,0.98
COc1ccc(C2=NS(=O)(=O)N(C)C(C(=O)N3CCN(C(=O)c4ccco4)CC3)=C2)cc1,-0.02,-0.38
Cc1ccc(Nc2nnc(-n3nc(C)cc3C)c3ccccc23)cc1,/,1.9
CC[n+]1c(/C=C(\C)Nc2ccccc2)sc2ccccc21,-2.8,0.04
Cc1ccc(C)n1-c1ccc(Cl)c(C(=O)NN)c1,19*,/
COc1cccc(-c2nc(SCc3cc(=O)c4cc(Cl)ccc4[nH]3)n[nH]2)c1,/,0.2
CCc1cc2c3c([nH]c2cc1S(=O)(=O)N1CCC(C)CC1)CC(C)(C)CC3=O,/,0.45
O=C(Cn1ncc2ccsc2c1=O)NCc1ccco1,0.3,1.8
CC(C)Cc1nn2c(=O)cc(COC(=O)C3CCCCC3)nc2s1,/,0.25
CC(C)N1CCn2c(nc3cc(NC(=O)c4ccco4)ccc32)C1,10*,19*
Cc1cccc(-c2nc(-c3ccc(C)s3)no2)c1,/,1.2
O=C1Nc2cc(C(=O)N3CCN(C(=O)c4ccco4)CC3)ccc2Sc2ccccc21,-1,0.2
Cc1ccc(C2=NN(CCC(=O)NC3CC3)C(=O)CC2)cc1,-2.3,/
Cc1[nH]nc(-c2ccc(S(=O)(=O)NCc3cccs3)s2)c1C,/,-1.1
CCCCNC(=O)OC(C)CNC(=O)OC (centres undefined),-2.2,-0.11
COCCN(CCOC)C(=O)c1cc2c(=O)n3cccc(C)c3nc2s1,-0.64,/
O=C(NCCCN1CCCCC1)c1cc2c(s1)-c1ccccc1S(=O)(=O)C2,-0.31,1.4
C=CCNC(=O)c1c(NC(=O)c2cccs2)sc2c1CCC(C(C)(C)C)C2 (centres undefined),-0.44,/
Cc1ccc(NC(=O)C2=Cc3sc(C)c(C)c3CS2)cc1C,/,0.08
CC(C)NCC(O)c1ccc(NS(C)(=O)=O)cc1 (centres undefined),-1,-1.6
CC1CCN(C(=O)C2(c3cccs3)CCOCC2)CC1,/,1.6
CCN1CCCC1CNC(=O)CCc1nc(-c2ccc(C)cc2)no1 (centres undefined),-1.2,/
Cc1sc2nc(-c3ccc(N4C(=O)CCC4=O)cc3)oc(=O)c2c1C,-0.08,-0.28

# Profiles, looked up by structure:
# `CCCCNC(=O)OC(C)CNC(=O)OC` (centres undefined) as listed: CDC25B CDK2 inh = -2.2; HIV TAR-Tat = -0.11
# `O=C1Nc2cc(C(=O)N3CCN(C(=O)c4ccco4)CC3)ccc2Sc2ccccc21` as listed: CDC25B CDK2 inh = -1; HIV TAR-Tat = 0.2

# Next entries.
SMILES | CDC25B CDK2 inh | HIV TAR-Tat
CCN(CC)c1ccc(NC(=O)C2CCCCC2)c(N(CC)CC)n1 | -1.4 | /
CC1Cc2cc(S(=O)(=O)N3CCC(C(=O)Nc4ccccn4)CC3)ccc2N1C(=O)C1CCC1 (centres undefined) | / | -0.46
O=C1CCCN2N=C(SCC(=O)Nc3ccc(Cl)cc3)SC2=N1 | -0.96 | /
Cc1ccc(N2CSC3=C(C#N)C(c4cccs4)CC(=O)N3C2)cc1 (centres undefined) | 4.1* | -0.6
CCOc1ccc2[nH]cc(S(=O)(=O)c3ccc(C)cc3)c(=O)c2c1 | -1.9 | 2.6
CCc1nn(CC(=O)N2CCN(CC)CC2)c(=O)c2cc3sccc3n12 | 0.73 | -0.51
CCSc1nc2n(n1)C(c1ccc(OC)c(OC)c1)C1=C(CCCC1=O)N2 (centres undefined) | -2 | 2.1
CCCCCCCNc1c2c3c(cccc3n(C)c1=O)C(=O)c1ccccc1-2 | 1.1 | -2.3
CC1(C)CC(=O)C(N=Nc2c(F)cccc2F)=C(O)C1 | 0.54 | /
c1ccc(CSc2nc3ccccc3n3cnnc23)cc1 | -1.9 | 0.59
O=C(COCc1cc(-c2ccc(F)cc2)on1)Nc1c(F)cc(F)cc1Br | / | -0.03
O=C(NCCCN1CCC(N2CCCCC2)CC1)C1CCCN(c2nnc(-n3cccc3)s2)C1 (centres undefined) | / | 0.86
NC(=O)Cn1c(=O)n(Cc2ccco2)c(=O)c2sc3ccccc3c21 | -2.7 | 0.64
NC(=O)c1sc2ccccc2c1N | -3.2 | -0.62
O=C(c1cnn(-c2ccccc2)c1-n1cccc1)N1CCc2ccccc21 | -0.69 | 2.9
CCOc1cc(CNc2ccc3[nH]c(=O)[nH]c3c2)cc(Br)c1OC | 6.1* | -0.04
CCCn1cc(-c2ccc3c(c2)CN2CCC(O)C2=N3)cn1 (centres undefined) | / | 1.8
O=C(CCc1nc(CSc2nc3ccccc3s2)no1)Nc1ccc(Cl)cc1 | / | 2
CCOC(=O)C1CCCN(C(=O)c2sc3nc(C)nc(N4CCC(C)CC4)c3c2C)C1 (centres undefined) | -0.42 | /
CC1CCc2c(cnc3c(C(=O)NCCCN4CCN(C5CCCCC5)CC4)cnn23)C1 (centres undefined) | / | 0.7
CC1CCCC(Nc2c(-c3ccc(Cl)cc3)c(=O)c2=O)C1C (centres undefined) | / | 1
Clc1ccc(OCc2nc3ccccc3s2)cc1 | -1.7 | -1.6
CCOC(=O)c1nnn(-c2nonc2N)c1CSc1nc(C)cc(C)n1 | -2.9 | /
O=c1[nH]c2ccc(S(=O)(=O)N3CCc4nc(N5CCCCC5)ncc4C3)cc2o1 | / | 2.3
O=C(c1cccn2c(=O)c3ccc(Cl)cc3nc12)N1CCN(c2ccc(F)cc2)CC1 | -0.5 | /
CC1CN(C(=O)CCS(=O)(=O)c2ccc3c(c2)n(C)c(=O)c(=O)n3C)c2ccccc2S1 (centres undefined) | / | 2
COC(=O)c1cccc2c1C(=O)c1ccccc1-2 | -1.3 | -0.01
CC[n+]1c(C)n(-c2ccccc2)c2ccc(N)cc21 | -2.4 | 0.49
CC(NC(=O)CN1C(=O)CCSc2ccccc21)C12CC3CC(CC(C3)C1)C2 (centres undefined) | -1.4 | /
CSc1nnc(NC(=O)Cc2coc3ccc(C)cc23)s1 | -8.4 | -2
Cc1cccc(Cc2c(C)nc3nc(C(F)(F)F)[nH]n3c2=O)c1 | -1.4 | 1.5
CCOC(=O)N1CCN(Cc2nc3c(c(=O)n(C)c(=O)n3C)n2Cc2ccc(C)cc2)CC1 | -0.71 | 3.7
CC1=C(c2ccc(C(C)C)cc2)S(=O)(=O)N=C1N1CCC(C(=O)NCC2CCCO2)CC1 (centres undefined) | / | 0.75
O=C(Cn1ncc2c1-c1ccccc1OC2)Nc1ccc(F)cc1 | -0.08 | 0.48
Cc1c(N2CCN(S(=O)(=O)c3ccccc3)CC2)c(=O)n(C)c(=O)n1-c1ccccc1 | / | 1.8
Cc1oc2cc3oc(=O)c4c(c3cc2c1-c1ccccc1)CCC4 | -1.5 | /
CN(C)S(=O)(=O)c1ccc(C(=O)Nc2nnc3n2CCS3)cc1 | / | 1
COc1ccc(/C=C2/CCCC3=C2OC(N)=C(C#N)C3c2ccc(OC)cc2OC)c(OC)c1 (centres undefined) | -0.21 | /
O=C(CCc1ccccc1)Nc1noc2ccccc12 | -1.3 | 1.3
COc1cc(C2C=C(C(=O)O)Nc3ncnn32)ccc1O (centres undefined) | -0.98 | -0.85
Cc1ccc(CNC(=O)c2cc3c(=O)n(Cc4ccco4)ccc3nc2C)o1 | / | 0.56
C=CCn1c(=S)[nH]c2ncccc2c1=O | -1.4 | /
COc1ccc(-c2ccc(C#N)c(SCc3ccccn3)n2)cc1 | -0.37 | 3.5
COc1cc(C2OC(c3ccc(OC(C)=O)cc3)=NN2C(C)=O)ccc1OC(C)=O (centres undefined) | / | 1.7
CSc1cccc(NC(=O)Cn2c(=O)oc3cc(S(=O)(=O)N4CCCC4)ccc32)c1 | -2.2 | /
CCOc1nc(-c2ccccc2)ccc1-c1noc(-c2ccco2)n1 | -2.2 | -6.8
CC(=O)N1CCN(c2ccc(NC3=C(C(=O)N4CCOCC4)S(=O)(=O)c4ccccc43)cc2)CC1 | / | 0.09
COc1ccc(-c2onc(C)c2C)cc1S(=O)(=O)NCCc1ccco1 | / | 1.7
CC(C(=O)NCc1cccs1)n1sc2ccccc2c1=O (centres undefined) | 1.8 | 2
COc1ccc(OC)c(Nc2nc3ccccc3n3nnnc23)c1 | -1.6 | -1.1
Cc1cc(N2CCCC2)n2ncc(-c3ccc(F)cc3)c2n1 | -4.5 | 0.04
O=C(NC(=O)c1ccccc1)NC(F)(F)C(F)(F)C(F)(F)F | -1.6 | /
CCn1ccc2cc(S(=O)(=O)N3CCCC(C(=O)NCCSCc4ccco4)C3)ccc21 (centres undefined) | / | 0.6
CC1(C)CC(=O)C2=C(C1)Nc1ccc3ccccc3c1C2c1ccc2c(c1)OCO2 (centres undefined) | -3.6 | 0.13
Cn1cccc1-c1cc2n(n1)CCC(=O)N2CCCC(=O)NCCCN1CCc2ccccc2C1 | / | -0.19
Cc1ccc(-c2nc3c4cnn(-c5ccccc5)c4ncn3n2)cc1 | 0.44 | 1.6
O=C(CSc1nc2ccccc2c(=O)n1-c1cccnc1)c1cccs1 | -0.47 | /
CCOc1ccc(-n2nnnc2CNS(=O)(=O)c2ccccc2)cc1 | / | 0.9
